Compound activity from PubChem BioAssay.
GLA inh pH 4.5: inhibitors of human alpha-galactosidase A at pH 4.5 | activity change, negative = inhibition, % at 105 µM | 230,000 tested, under 10 active | purified enzyme, 4-MU-alpha-Gal fluorescence, pH 4.5 | P06280 | AID 1467; inconclusive = small, poorly fitted or top-dose-only inhibition, or a rising curve; inactive = flat fitted curve, though single readings scatter; no compound was filed as active;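 further: 0% = full activity with enzyme and -100% = basal without enzyme; dose as in the result columns while the protocol names 77 µM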
Target sequence (P06280 whole entry, looked up): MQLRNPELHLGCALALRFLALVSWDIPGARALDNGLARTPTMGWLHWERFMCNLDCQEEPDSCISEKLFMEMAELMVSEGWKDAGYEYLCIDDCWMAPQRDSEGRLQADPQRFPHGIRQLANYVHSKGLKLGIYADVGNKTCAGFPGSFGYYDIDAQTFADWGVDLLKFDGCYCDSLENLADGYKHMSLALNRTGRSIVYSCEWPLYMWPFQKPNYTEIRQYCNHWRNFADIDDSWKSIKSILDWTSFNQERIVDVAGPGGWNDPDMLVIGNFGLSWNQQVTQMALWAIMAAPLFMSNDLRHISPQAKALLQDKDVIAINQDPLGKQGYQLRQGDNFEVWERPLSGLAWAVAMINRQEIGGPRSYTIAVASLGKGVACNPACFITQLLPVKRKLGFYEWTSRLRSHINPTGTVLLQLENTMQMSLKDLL
Rango-impB inh: inhibitors of Rango-importin beta complex formation. Rango CFP/YFP FRET sensor + importin beta, 45 min. 340,000 tested, 0.031% active. AID 540263. Q14974. Potency, µM (top dose mostly 92.2 µM), inactives show at the highest dose inhibition of complex formation; active = rising FRET ratio curve, often small or poorly fitted; inconclusive = mostly compound fluorescence or quenching in the first reads; inactive = flat curves in all reads;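 further: potency means the concentration at half of the fitted maximal effect; 0% = DMSO wells and 100% = buffer wells lacking importin beta; nearly all actives have a fitted effect of over 15% in size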
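FRET biosensor (snurportin 1 IBB flanked by EYFP and cerulean), 50 nM, with compound 5 min, then 0.125 microM importin beta in PBS, 1 mM DTT, 0.02% Tween-20, 0.1% BSA. CFP/YFP ratio read after 45 min at room temperature; pre-read flags interference.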
miR-21 FLuc: raises the signal of a miR-21 reporter | HeLa miR-21 FLuc reporter, luciferase, 48 h | Potency, µM (doses to about 38.3 µM), for inactives: top-dose reporter change, positive = more light | 340,000 tested, under 10 active | AID 2288; active = well fitted rising curve with a large enough effect; inconclusive = small, poorly fitted or top-dose-only effect; inactive = no such curve, though single readings can be large or run the other way;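 further: % of control where 0% means no effect; miR-21 action dims this reporter so a rising signal means less miR-21 action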
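Compounds were titrated across several concentrations (up to approximately 40 uM) and incubated 48 hours with HeLa miR-21-FLuc reporter cells (miR-21 target sequence downstream of FLuc, endogenous miR-21). Readout was firefly luciferase luminescence after lytic detection reagent.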
Rango release inh: prevents RanGTP from dissociating the Rango-importin beta complex; O95149+P62826; Potency, µM (doses to about 46.1 µM), inactives show at the top dose activity change, negative = inhibition; 340,000 tested, 0.071% active; Biochemical FRET Rango-importin beta, RanGTP-induced dissociation; active means falling FRET ratio curve, often poorly fitted, with flat reads before Ran was added; inconclusive means other falling curves, or compound fluorescence or quenching; inactive means flat or rising ratio curve;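 further: potency means the concentration at half of the fitted maximal effect; % of control where 0% means no effect; nearly all actives have a fitted effect of over 45% in size; -100% = wells without RanGTP and RCC1; the record marks most hits as doubtful in a second field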
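FRET read at 45 min, room temperature: inhibitors block the CFP/YFP signal rise when RanGTP (0.6 uM Ran, 2 mM GTP, 0.2 uM RCC1) frees Rango (0.1 uM) from importin beta (0.25 uM). Pre-read after 5 min compound exposure flags interference.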
* marks the source's active call; other numbers are inactive results; & = joins results of further samples. Some of the compounds tested, so the mix of outcomes need not match the whole.

Results for O=C(O)CC(Cc1ccccc1)C(=O)Nc1ccc([N+](=O)[O-])cc1 (stereo not drawn) ?
GLA inh pH 4.5: -7; Rango-impB inh: -0.2%; miR-21 FLuc: -3%; Rango release inh: 3%

How did COc1ccccc1N1CCN(C(c2cc3ccc(C)cc3[nH]c2=O)c2nnnn2C2CCCC2)CC1 (stereo not drawn) do in these assays?
GLA inh pH 4.5: -1; Rango-impB inh: 58µM*; miR-21 FLuc: -5%; Rango release inh: -3%

How did NC(Cc1ccc(O)c([N+](=O)[O-])c1)C(=O)O (stereo not drawn) do in these assays?
GLA inh pH 4.5: 5; Rango-impB inh: 0.4%; miR-21 FLuc: -8%; Rango release inh: -17%

How did N#Cc1ccc(C2=CC(=O)C[C@H](c3ccc(F)cc3)C2)cc1 do in these assays?
Rango-impB inh: -6.1%; Rango release inh: -20%

How did Cc1ccc(-c2nnc(-c3ccc(Br)cc3)o2)o1 do in these assays?
GLA inh pH 4.5: 4; Rango-impB inh: 3.4%; miR-21 FLuc: -33%; Rango release inh: 0%

Results for CC(C)[C@H](NC(=O)N1CC(=O)Nc2ccccc21)C(=O)Nc1nccs1 ?
Rango-impB inh: 0.9%; miR-21 FLuc: 4%; Rango release inh: -11%

Results for CCCC(=O)c1cc2c(cc1NC(=O)CC)OCCO2 ?
GLA inh pH 4.5: 2; Rango-impB inh: -1.2%; miR-21 FLuc: -1%; Rango release inh: 16%

What do the screens show for `CCCCOC(=O)CCn1[nH]c(=O)c2ccccc2c1=O`?
GLA inh pH 4.5: -1; Rango-impB inh: -1.2%; miR-21 FLuc: -2%; Rango release inh: -6%

What do the screens show for `CN1CCN(c2ccc(NC(=O)c3ccc(C#N)cc3F)cc2Cl)CC1`?
GLA inh pH 4.5: -9; Rango-impB inh: -0.2%; miR-21 FLuc: -16%; Rango release inh: 0%

What do the screens show for `Nc1nc(=O)n(C2CCCO2)cc1Br` (stereo not drawn)?
Rango-impB inh: -3.4%; Rango release inh: -2%

Results for COc1ccc(C(C)NCCC(c2ccc(OC(C)C)cc2)c2ccccc2OC)cc1 (stereo not drawn) ?
Rango-impB inh: -1.2%; miR-21 FLuc: inconclusive; Rango release inh: 0%

What do the screens show for `O=S(=O)(c1ccc(F)cc1)N1CCN(CCOc2ccccc2)CC1`?
Rango-impB inh: -6.3%; Rango release inh: 21%

How did O=C(CSC(=S)N1CCCC1)N1CCN(S(=O)(=O)c2cccc([N+](=O)[O-])c2)CC1 do in these assays?
Rango-impB inh: 2.7%; miR-21 FLuc: -4%; Rango release inh: 10%

How did CC1CCN(CC(=O)Nc2ccccc2Sc2ccccc2)CC1 do in these assays?
GLA inh pH 4.5: -12; Rango-impB inh: 4.2%; miR-21 FLuc: -4%; Rango release inh: -22%

What do the screens show for `O=C(CN1CCN(CCO)CC1)Nc1ccccc1`?
GLA inh pH 4.5: 0; Rango-impB inh: 8.5%; miR-21 FLuc: -3%; Rango release inh: -4%

How did CCOc1cccc(=O)c2c(C)n(Cc3ccccc3)c(C)c12 do in these assays?
GLA inh pH 4.5: -26; Rango-impB inh: 1.4%; miR-21 FLuc: -4%; Rango release inh: -24%

Results for CCn1cc(C(=O)N/N=C(/C)c2ccc(F)cc2)c(=O)c2cc(F)c(N3CCCC3)cc21 ?
GLA inh pH 4.5: -6; miR-21 FLuc: -2%

What do the screens show for `CCOC(=O)c1c(NC(C)=O)sc2c1CCN(Cc1ccccc1)C2`?
Rango-impB inh: inconclusive; miR-21 FLuc: 0%; Rango release inh: inconclusive

What do the screens show for `Cc1ccnc(Nc2nc(-c3ccc(O)cc3)cs2)c1`?
Rango-impB inh: 0.2%; miR-21 FLuc: -24%; Rango release inh: 1%

How did COc1cc2c(cc1OC)[C@@H](NC(=O)CCc1ccccc1)[C@H](O)C2 do in these assays?
Rango-impB inh: -0.4%; Rango release inh: 34%

How did c1csc(-c2nc(-c3ccncc3)no2)c1 do in these assays?
GLA inh pH 4.5: -2; Rango-impB inh: -1.6%; miR-21 FLuc: -44%; Rango release inh: 0%

Results for Cc1ccc(S(=O)(=O)NCCSc2nnnn2-c2ccccc2)cc1 ?
GLA inh pH 4.5: 2; Rango-impB inh: -2.1%; miR-21 FLuc: 0%&-4%; Rango release inh: -3%

How did CCc1nnc(SCC(=O)Nc2ccc3c(c2)OCO3)o1 do in these assays?
GLA inh pH 4.5: 8; Rango-impB inh: -5.5%; miR-21 FLuc: -7%; Rango release inh: 1%

What do the screens show for `S=c1[nH]nc(-c2ccccc2)c2ccccc12`?
GLA inh pH 4.5: 7; Rango-impB inh: 2.6%; miR-21 FLuc: 3%; Rango release inh: 1%

Pulled by structure from the entries so far (4):
How did CCOc1cccc(=O)c2c(C)n(Cc3ccccc3)c(C)c12 do in these assays?
GLA inh pH 4.5: -26; Rango-impB inh: 1.4%; miR-21 FLuc: -4%; Rango release inh: -24%

How did O=C(CSC(=S)N1CCCC1)N1CCN(S(=O)(=O)c2cccc([N+](=O)[O-])c2)CC1 do in these assays?
Rango-impB inh: 2.7%; miR-21 FLuc: -4%; Rango release inh: 10%

How did CCc1nnc(SCC(=O)Nc2ccc3c(c2)OCO3)o1 do in these assays?
GLA inh pH 4.5: 8; Rango-impB inh: -5.5%; miR-21 FLuc: -7%; Rango release inh: 1%

How did COc1cc2c(cc1OC)[C@@H](NC(=O)CCc1ccccc1)[C@H](O)C2 do in these assays?
Rango-impB inh: -0.4%; Rango release inh: 34%

Further results:
What do the screens show for `Cc1ccc(C(C(=O)Nc2ccc3c(c2)OCO3)N(C)C(=O)/C=C\c2ccc3c(c2)OCO3)cc1` (stereo not drawn)?
GLA inh pH 4.5: -25; Rango-impB inh: -2.7%; miR-21 FLuc: 2%; Rango release inh: -15%

Results for CN(C(=S)NC(=O)Cc1ccccc1)c1ccccc1 ?
GLA inh pH 4.5: 5; Rango-impB inh: 0.2%; miR-21 FLuc: -13%; Rango release inh: -3%

What do the screens show for `C=CCOc1ccc(C(=O)/C=C2/C(=O)Nc3ccccc32)cc1`?
Rango-impB inh: -2.5%; miR-21 FLuc: 11%; Rango release inh: 19%

Results for COc1ccc(C(=O)CNc2ccc3ccccc3c2)cc1 ?
GLA inh pH 4.5: 11; Rango-impB inh: inconclusive; miR-21 FLuc: -35%; Rango release inh: -22%

What do the screens show for `COc1ccc(N2C(=O)CC(N3CCOCC3)C2=O)cc1` (stereo not drawn)?
GLA inh pH 4.5: 1; Rango-impB inh: 0.1%; miR-21 FLuc: -2%; Rango release inh: -10%

How did C/C(=N\NS(=O)(=O)c1ccccc1)c1ccccc1 do in these assays?
GLA inh pH 4.5: -6; Rango-impB inh: 4.5%; miR-21 FLuc: -2%; Rango release inh: -5%

Results for CC(C)(C)[C@@H]1CCC(=O)N(CC[C@H](Sc2ccccc2)c2ccccc2)CC1 ?
Rango-impB inh: 3.6%; miR-21 FLuc: 9%; Rango release inh: 8%

How did COc1cc(C=Nc2ccccc2C(=O)Nc2ccccc2)cc(OC)c1OC do in these assays?
GLA inh pH 4.5: 5; Rango-impB inh: 0.4%; miR-21 FLuc: -24%; Rango release inh: -4%

Results for COc1ccc(-c2cc(=O)c3c(O)c(OC)c(O)cc3o2)cc1 ?
GLA inh pH 4.5: -7; Rango-impB inh: 0.9%; miR-21 FLuc: -44%; Rango release inh: -7%

How did CCc1cccc(NC(=O)c2cccc(S(=O)(=O)N3CCN(C)CC3)c2)c1 do in these assays?
Rango-impB inh: -0.2%; miR-21 FLuc: 2%; Rango release inh: -2%

Results for O=C(CSCCO)Nc1ccc(C23CC4CC(CC(C4)C2)C3)cc1 ?
GLA inh pH 4.5: -3; Rango-impB inh: -0.8%; miR-21 FLuc: inconclusive; Rango release inh: -2%

How did COc1cc(C(CC(=O)O)n2cnnn2)ccc1OC(C)C (stereo not drawn) do in these assays?
GLA inh pH 4.5: 7; Rango-impB inh: 1.4%; miR-21 FLuc: 0%; Rango release inh: -20%

How did CC(=O)c1sc(NC(=O)CN2C(=O)NC3(CCCC3)C2=O)nc1-c1ccccc1 do in these assays?
Rango-impB inh: 4.2%; Rango release inh: 4%

What do the screens show for `COP(=O)(OC)C(Nc1cc(Cl)cc(Cl)c1)c1cccc(O)c1` (stereo not drawn)?
GLA inh pH 4.5: 10; Rango-impB inh: 1.5%; miR-21 FLuc: 2%; Rango release inh: -11%

Results for CN(C)c1ccc(NC(=O)c2ccc(N3CCOCC3)nc2)cc1 ?
Rango-impB inh: 0.4%; miR-21 FLuc: -25%; Rango release inh: -1%

Results for C/C(N)=C(/C#N)C(=O)COC(=O)c1oc2ccccc2c1COC(C)C ?
GLA inh pH 4.5: -8; Rango-impB inh: -1.7%; miR-21 FLuc: 0%; Rango release inh: -13%

What do the screens show for `COc1ccc(Cn2c(C)nc3oc4cc(OC)ccc4c(=O)c3c2=O)cc1`?
GLA inh pH 4.5: 6; Rango-impB inh: 0.3%; miR-21 FLuc: -5%; Rango release inh: -1%

Results for CN(Cc1ccccc1)C(=O)c1nc[nH]c1C(=O)N1CCN(c2ccccc2)CC1 ?
Rango-impB inh: 1.7%; Rango release inh: 5%

Results for C=CCNC(=O)C(C)N1c2cccc3cccc(c23)S1(=O)=O (stereo not drawn) ?
Rango-impB inh: -3.0%; miR-21 FLuc: -6%; Rango release inh: -14%

How did CC(C)C(NC(=O)c1ccccc1)C(=O)OCC(=O)N1CCCC1 (stereo not drawn) do in these assays?
Rango-impB inh: 3.1%; Rango release inh: -11%

Results for CCCC(C)c1nnc(NC(=O)c2cc(C(=O)OC)cc([N+](=O)[O-])c2)s1 (stereo not drawn) ?
GLA inh pH 4.5: -4; Rango-impB inh: 0.8%; miR-21 FLuc: -1%; Rango release inh: -11%

Results for CN1CCN(NC(=S)NC2CCCC2)CC1 ?
GLA inh pH 4.5: 1; Rango-impB inh: 1.2%; miR-21 FLuc: -1%; Rango release inh: -9%

How did Cc1ccc(CCNC(=O)CN(c2ccc(C)cc2)S(=O)(=O)c2c(C)noc2C)cc1 do in these assays?
Rango-impB inh: 2.0%; miR-21 FLuc: -10%&3%; Rango release inh: 28%

Results for Cn1nc(C(=O)N2CCN(c3ccccc3F)CC2)c2c1-c1ccccc1S(=O)(=O)C2 ?
Rango-impB inh: 1.2%; miR-21 FLuc: 3%&5%; Rango release inh: 13%

How did CC(C)(C)OC(=O)N1CCC(c2cc(-c3cccs3)n[nH]2)CC1 do in these assays?
GLA inh pH 4.5: -6; Rango-impB inh: 1.0%; miR-21 FLuc: -4%; Rango release inh: 22%

What do the screens show for `CCCCN(C(=O)c1ccc2c(c1)S(=O)(=O)N=C1CCCCCN12)c1c(N)n(CCCC)c(=O)[nH]c1=O`?
Rango-impB inh: -1.2%; Rango release inh: -18%

How did O=C(NC(=S)NC1CCCCC1)c1ccccc1[N+](=O)[O-] do in these assays?
Rango-impB inh: 1.0%; miR-21 FLuc: -17%; Rango release inh: -12%

What do the screens show for `CCOc1cc(N2CCOCC2)c(OCC)cc1NC(=O)c1ccc2ccccc2n1`?
GLA inh pH 4.5: -17; Rango-impB inh: inconclusive; miR-21 FLuc: -19%; Rango release inh: -5%

Results for CCOC(=O)c1oc2ccc(S(=O)(=O)n3nc(-c4ccccc4)cc3N)cc2c1C ?
GLA inh pH 4.5: -1; Rango-impB inh: 0.3%; miR-21 FLuc: 0%; Rango release inh: 40%

What do the screens show for `N#CC1=C(N2CCCCC2)c2cc3c(n2C1=O)CCCC3`?
GLA inh pH 4.5: 3; Rango-impB inh: 3.0%; miR-21 FLuc: -25%; Rango release inh: -7%

No new results follow: an excerpt of the list.
What do the screens show for `CCOc1cc(N2CCOCC2)c(OCC)cc1NC(=O)c1ccc2ccccc2n1`?
GLA inh pH 4.5: -17; Rango-impB inh: inconclusive; miR-21 FLuc: -19%; Rango release inh: -5%

Results for CCOC(=O)c1oc2ccc(S(=O)(=O)n3nc(-c4ccccc4)cc3N)cc2c1C ?
GLA inh pH 4.5: -1; Rango-impB inh: 0.3%; miR-21 FLuc: 0%; Rango release inh: 40%

What do the screens show for `N#CC1=C(N2CCCCC2)c2cc3c(n2C1=O)CCCC3`?
GLA inh pH 4.5: 3; Rango-impB inh: 3.0%; miR-21 FLuc: -25%; Rango release inh: -7%
